Compound activity: PubChem BioAssay, ICCB-Longwood Screening Facility, Harvard Medical School
Polio RdRp inh – poliovirus RNA polymerase inhibition; AID 588519; % elongation, % (compound at 16.7 µg/mL); hit rate 0.66% among 150,000; poliovirus polymerase elongation, fluorescence polarization; active compounds read low; in the data active = % elongation below about 90%; note: some results filed as inactive read as strong as hits
Target sequence (P03300 1749-2209 limits assumed): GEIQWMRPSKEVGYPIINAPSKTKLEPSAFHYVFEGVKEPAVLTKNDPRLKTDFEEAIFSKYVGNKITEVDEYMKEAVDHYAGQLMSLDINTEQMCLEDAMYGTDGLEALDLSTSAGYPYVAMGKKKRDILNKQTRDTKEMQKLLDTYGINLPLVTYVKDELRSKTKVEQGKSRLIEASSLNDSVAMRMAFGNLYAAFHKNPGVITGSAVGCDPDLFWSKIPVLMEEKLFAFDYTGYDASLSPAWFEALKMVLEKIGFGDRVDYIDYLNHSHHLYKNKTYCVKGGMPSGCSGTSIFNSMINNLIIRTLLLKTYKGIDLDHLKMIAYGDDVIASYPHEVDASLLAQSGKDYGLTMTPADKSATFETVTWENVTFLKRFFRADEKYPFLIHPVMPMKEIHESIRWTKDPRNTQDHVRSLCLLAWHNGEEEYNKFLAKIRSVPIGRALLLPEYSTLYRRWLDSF
Mtb MbtI inh – blocks the Mycobacterium tuberculosis siderophore enzyme MbtI. P9WFX0. inhibition, %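 (about 17 µg/mL by stock and volumes)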. purified MbtI enzyme, fluorescence intensity read-out. hit rate 0.89% among 100,000;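 active = above 50% in both replicates, above 80% if mildly self-fluorescent; inactive = the rest, strongly fluorescent compounds included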;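 note: 0% = mean of negative and 100% = mean of positive controls; one replicate is shown; some compounds called inactive have numbers as strong as hits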
Target sequence (P9WFX0 whole entry, looked up): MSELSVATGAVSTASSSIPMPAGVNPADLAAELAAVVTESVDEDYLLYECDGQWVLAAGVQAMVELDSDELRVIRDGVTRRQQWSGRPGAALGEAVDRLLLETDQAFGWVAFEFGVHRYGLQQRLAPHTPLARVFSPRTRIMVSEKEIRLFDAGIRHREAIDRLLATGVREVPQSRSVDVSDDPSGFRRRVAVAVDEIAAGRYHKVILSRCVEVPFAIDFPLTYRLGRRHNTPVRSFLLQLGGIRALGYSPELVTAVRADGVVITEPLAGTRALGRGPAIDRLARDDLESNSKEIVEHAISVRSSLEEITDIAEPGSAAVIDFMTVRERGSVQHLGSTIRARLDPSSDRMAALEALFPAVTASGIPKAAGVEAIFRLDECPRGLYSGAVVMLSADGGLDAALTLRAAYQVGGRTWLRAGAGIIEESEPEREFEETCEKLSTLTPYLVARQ
MenB inh – inhibitors of Mycobacterium tuberculosis MenB enzyme; P9WNP5; AID 540299; inhibition, %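 (about 12 µg/mL by stock and volumes)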; MenB enzyme assay, absorbance read-out; some hits fall short of the stated cut; hit rate 0.43% among 100,000;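 active = mean of two replicates above 30%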;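 note: 0% = no compound and 100% = wells with inactive enzyme; the first replicate is given; strong numbers were not always called active; inactives centre near -10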
Polio RdRp inh intensity – second read-out of Polio RdRp inh, no call of its own (marks repeat the call); % elongation; measured here: total intensity read-out; formula for this scale not given here;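 total fluorescence in place of polarization; lower means less elongation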
The depositor's hits bear a star; · = no result given; & = joins results of further samples.

Order of results – Polio RdRp inh | Polio RdRp inh intensity | Mtb MbtI inh | MenB inh
- CC(C(=O)NC1(C#N)CCCCC1)N1CCN(S(=O)(=O)c2ccc(Br)s2)CC1 (configuration not stated)
    102 | 103 | -8 | 1
- CC(C)C[C@H](NC(=O)[C@@H](O)[C@H](N)Cc1ccccc1)C(=O)O
    103&103 | 103&102 | -12 | -8
- O=C(Nc1cccc(Cl)c1)c1ccc(Cl)cc1
    104 | 102 | -4 | -16
- O=C(CC1CC2CCC1C2)NCc1ccc(F)cc1 (configuration not stated)
    104 | 99 | -1 | 10
- CCN1C(=O)C2C(C1=O)N1C(c3ccccc3)C3C(=O)N(CC)C(=O)C3N1C2c1ccccc1 (configuration not stated)
    102 | 102 | -3 | -24
- CCN1CCCC1CNC(=O)C(NC(=O)c1ccc(C23CC4CC(CC(C4)C2)C3)cc1)C(C)C (configuration not stated)
    99 | 96 | 1 | 10
- O=C(NCc1ccccc1)C(=S)NC1CCCC1
    102 | 101 | -5 | -26
- CN1C/C(=C/c2cccc3ccccc23)C(=O)/C(=C/c2ccc3ccccc3c2)C1
    102 | 101 | 27 | -15
- COc1ccc(C2CC(=O)C3=C(C2)Nc2ccccc2N(C(C)=O)C3c2ccccc2)cc1 (configuration not stated)
    99 | 99 | -7 | 0
- CC1Cc2ccccc2N1C(=O)COC(=O)C1CCN(C(=O)Nc2ccccc2)CC1 (configuration not stated)
    97 | 95 | 3 | -9
- Oc1ccccc1/C=N/c1ncc(C(F)(F)F)cc1Cl
    108 | 111 | · | -14
- CCN(CC)c1ccc(/C=c2\sc3ncnn3c2=O)cc1
    119 | 135 | -10 | -4
- O=C(COC(=O)c1ccc2c(=O)n3c(nc2c1)CCC3)Nc1ccccc1
    · | · | 42 | 8
- CCCn1nnnc1CSc1nnc(-c2cccs2)n1C1CC1
    102 | 112 | -3 | 5
- OCCNCCSc1nnc(-c2ccccc2)n1-c1ccccc1
    104 | 105 | 9 | 0
- O=C(O)CCC(=O)Nc1cccc(O)c1
    101 | 103 | -32 | -8
- Cc1ccc(N2C(=O)C(N3C(=O)c4ccccc4C3=O)C2c2ccc(N(C)C)cc2)cc1Cl (configuration not stated)
    101 | 104 | -3 | 7
- O=C(Nc1ccc(N2CCN(Cc3ccccc3)CC2)cc1)c1ncoc1-c1cccs1
    103 | 102 | -3 | -29
- O=C(NC(=S)Nc1ccc(S(=O)(=O)N2CCOCC2)cc1)c1ccc(Br)o1
    103 | 105 | 15 | -11
- CCCn1c(CCC(=O)N2CCc3ccccc32)nc2cccnc21
    100 | 101 | 1 | -17
- CC1(C)CC(=O)C2=C(C1)NC(=O)NC2c1ccc(Cl)cc1 (configuration not stated)
    106 | 100 | -9 | -24
- CCN1CCC(NCc2ccccc2Cl)CC1
    100 | 104 | -5 | -8
- CSc1nsc(SC)c1C(=O)NC(=O)N1CCSCC1
    109 | 110 | -6 | -17
- CC(C)(C)NC(=O)[C@H]1CC[C@H]2[C@@H]3CC[C@H]4NC(=O)C=C[C@]4(C)[C@H]3CC[C@]12C
    103 | 101 | -13 | -2
- Cc1ccnc2nc(C(=O)NCC3COc4ccccc4O3)nn12 (configuration not stated)
    98 | 99 | -38 | -12
- O=c1c2ccccc2nc(-c2ccco2)n1-c1nccs1
    101 | 102 | 27 | 42*
- CCN(CC)C(=O)Cn1c(S(=O)(=O)C(C)C)nc2ccccc21
    100 | 108 | 11 | -10
- CC(C)C(C)(C#N)NC(=O)CSc1nc(-c2ccccc2)c(-c2ccccc2)o1 (configuration not stated)
    102 | 98 | 117 | -14
- CCC(=O)c1cc(C)ccc1O
    102 | 102 | 0 | ·
- CC(C1CC1)N(Cc1ccccc1)S(=O)(=O)c1cn(C)c(=O)n(C)c1=O (configuration not stated)
    103 | 103 | -3 | -9
- NNC(=O)CN1CCCc2ccccc21
    102 | 103 | -4 | -21
- COC(=O)C1=C(C)NC2=C(C(=O)CC(C)(C)C2)C1c1ccccc1 (configuration not stated)
    103 | 102 | 15 | -2
- CCOC(=O)c1cc(-c2ccc(C)cc2)n(CCC(=O)Nc2nccs2)c1C
    100 | 104 | -3 | 3
- O=C(CCS(=O)(=O)c1cccs1)NC1CCCc2ccccc21 (configuration not stated)
    101 | 97 | 9 | 6
- O=C1CSC(c2cccnc2)N1CCc1ccccn1 (configuration not stated)
    103 | 105 | -10 | -28
- Cc1oc(-c2cccc(Cl)c2)nc1CS(=O)(=O)CC(=O)NCc1ccccc1
    98 | 97 | 23 | -6
- COCCn1c(N)c(C(=O)N2CCCC2)sc1=S
    105 | 104 | 6 | -18
- O=c1cc(-c2ccccc2)sc(=O)[nH]1
    108 | 110 | · | 5
- Cc1c(N=Cc2c(O)n(C)c(=O)c3ccccc23)c(=O)n(-c2ccccc2)n1C
    101 | 108 | -13 | -81
- CCCCN(C)S(=O)(=O)c1csc(C(N)=O)c1
    105 | 102 | -12 | -21

Grouped by structure, those above with a furan ring, fused or not (two)
Order of results – Polio RdRp inh | Polio RdRp inh intensity | Mtb MbtI inh | MenB inh
- O=C(NC(=S)Nc1ccc(S(=O)(=O)N2CCOCC2)cc1)c1ccc(Br)o1
    103 | 105 | 15 | -11
- O=c1c2ccccc2nc(-c2ccco2)n1-c1nccs1
    101 | 102 | 27 | 42*

Compound profiles, as listed above. Order of screens: Polio RdRp inh	Polio RdRp inh intensity	Mtb MbtI inh	MenB inh
`Cc1ccnc2nc(C(=O)NCC3COc4ccccc4O3)nn12` (configuration not stated) in the list: 98	99	-38	-12
`Cc1ccc(N2C(=O)C(N3C(=O)c4ccccc4C3=O)C2c2ccc(N(C)C)cc2)cc1Cl` (configuration not stated) in the list: 101	104	-3	7
`CC(C1CC1)N(Cc1ccccc1)S(=O)(=O)c1cn(C)c(=O)n(C)c1=O` (configuration not stated) in the list: 103	103	-3	-9

(listing goes on)
Order of results – Polio RdRp inh | Polio RdRp inh intensity | Mtb MbtI inh | MenB inh
- COc1ccc(N(C)c2ncnc3onc(-c4ccc(Cl)cc4)c23)c(OC)c1
    100 | 103 | -14 | -19
- Cc1ccc(NNC(=O)c2c(-c3ccccc3)noc2C)cc1C
    101 | 101 | 12 | 14
- S=C(NC1CCCCC1)N1CCn2cccc2C1c1cccs1 (configuration not stated)
    104 | 108 | 1 | -30
- Cc1nnc(Nc2ccc(C(=O)N3CCCCC3)cc2)c2ccccc12
    103 | 104 | -11 | -33
- CCN(c1ccccc1C(=O)O)S(=O)(=O)c1ccc2c(c1)n(C)c(=O)n2C
    101 | 102 | 62 | -8
- COC(=O)C1=C(C)N(c2ccccc2Cl)C(=O)/C1=C\c1cccs1
    101 | 98 | -11 | -31
- CCN(CC)CCNc1ncnc2c1sc1nc(C(C)C)c3c(c12)CCCC3
    101 | 106 | -1 | -10
- N=C1C(c2ccccc2)=C(O)CN1Cc1ccccc1
    108 | 100 | 1 | -26
- CC(C)NC(=O)COCc1cc(-c2ccco2)on1
    100 | 97 | 6 | 11
- COCCN1C(=O)c2ccc(C(=O)Nc3ccccc3)cc2C1=O
    101 | 103 | -23 | 4
- FC(F)Oc1ccccc1/C=N/n1cnc2ccccc21
    98 | 99 | 10 | -8
- CCc1ccc2ncc(S(=O)(=O)c3ccccc3)c(N3CCCCC3)c2c1
    100 | 103 | 2 | -39
- COC(=O)Cc1nc(C)cs1
    101 | 101 | 7 | -8
- CC(C)CN(CC(C)C)C(=O)c1cc2c(Cl)nc3ccccc3c2s1
    100 | 102 | 0 | 1
- COCc1cc(C)nc(OCC2=NN(C(C)=O)C(c3cccc(OC)c3)O2)c1C#N (configuration not stated)
    101 | 102 | 23 | -2
- N#Cc1ccc(COc2cnnc3ccccc23)cc1
    97 | 102 | -53 | -9
- CN(C)c1nc(N)nc(Cn2ccnc2)n1
    100 | 107 | · | 3
- O=C(Cn1c(=O)oc2cc(S(=O)(=O)NCc3ccccc3)ccc21)NC1CCCCC1
    102 | 103 | 6 | -50
- COc1ccc(CCC(=O)NNc2ccccc2)cc1
    101 | 92 | 3 | -24
- CCCNC(=O)c1cccc(Oc2ccccc2)c1
    101 | 104 | -24 | -15
- NC(=O)c1cc2ccccc2oc1=Nc1ccccc1
    101 | 106 | 11 | -8
- Cc1ccc(NC(=O)N2CC=C(c3c[nH]c4ccccc34)CC2)cc1
    102 | 108 | -41 | -14
- CN(CC(=O)N1CCCC1)S(=O)(=O)c1ccc2c(c1)c(=O)n(C)c(=O)n2C
    101 | 105 | 2 | 8
- Nn1c(Cc2ccccc2)nnc1SCC(=O)Nc1ccccc1F
    105 | 101 | -2 | -6
- O=c1[nH]c2ccc(NCc3ccc(Cl)cc3)cc2[nH]1
    98 | 102 | 25 | -89
- CSc1ncc(C(=O)NCCN(C)C)c(-c2ccccc2)n1
    100 | 103 | -8 | 5
- Cc1ccc(-c2noc(CN(C(=O)C(c3ccccc3)c3ccccc3)C(C)C)n2)cc1
    100 | 99 | -2 | -24
- CNS(=O)(=O)c1ccc(C(=O)NCC(=O)N2CCCC2c2ccc3c(c2)OCCCO3)cc1 (configuration not stated)
    104 | 108 | 7 | -18
- O=C(c1cnn(-c2cccc(F)c2)c1-n1cccc1)N1CCc2ccccc21
    99 | 101 | 13 | -4
- CCc1ccc(CN(Cc2cn[nH]c2-c2ccc(OC)cc2)C(=O)Nc2ccc(C)cc2C)cc1
    105 | 104 | -13 | -18
- CC(OC(=O)c1cccc2ccccc12)C(N)=O (configuration not stated)
    97 | 107 | -4 | -22
- Cc1cc(C)c(-n2c(SCc3nc4ccccc4s3)n[nH]c2=O)c(C)c1
    107 | 109 | -2 | -5
- N#Cc1ccccc1COC(=O)c1ccc(-n2cccc2)cc1
    101 | 104 | 50 | -14
- CCOC(=O)C1NC(=O)CC1c1ccccc1 (configuration not stated)
    104 | 105 | -5 | -24
- CCOC(=O)C1(c2cn(C)c3ccccc23)Sc2ccccc2NC1=O (configuration not stated)
    99 | 105 | -12 | -5
- O=C(Nc1ccccc1)NN1CC(=O)N(c2ccc(Cl)cc2)CC1=O
    102 | 102 | 5 | 5
- Cn1c(C(C#N)C(=O)c2ccc(-c3nc4ccccc4s3)s2)nc2ccccc21 (configuration not stated)
    98 | 108 | -9 | -29
- O=C(COC(=O)C(Cc1ccccc1)N1C(=O)c2ccccc2C1=O)c1ccc(Br)cc1 (configuration not stated)
    101 | 97 | 16 | 1
- Cc1nn(CCC(N)=S)c2nc(-c3ccccc3)ccc12
    73* | 81* | 175 | -29
- NS(=O)(=O)c1ccc(CCNC(=O)c2ccc(N3CCCC3=O)cc2)cc1
    105 | 107 | 136 | -45
- N#Cc1ccccc1Cn1cc(C(=O)c2cccs2)c2ccccc21
    98 | 103 | -13 | -34
- Cc1cc(=O)oc2cc(NC(=S)N3CCCC3)ccc12
    102 | 103 | -47 | 3
- O=C(O)C1C2CCC(CC2)C1C(=O)N1CCN(S(=O)(=O)c2ccc(F)cc2)CC1 (configuration not stated)
    100 | 100 | -19 | 13
- COc1cc(-c2nnc(SCc3nc4ccccc4s3)o2)cc(OC)c1OC
    98 | 111 | -8 | -47
- CC1(C(=O)O)Sc2[nH]c(=O)sc2C2c3ccccc3OC(=O)C21 (configuration not stated)
    98 | 99 | -9 | 6
- O=C(Cc1c(C(=O)O)[nH]c2ccc(Cl)cc12)NCC1COc2ccccc2O1 (configuration not stated)
    99 | 98 | 7 | -11
- O=S(=O)(c1cccc(-c2nnc(Sc3ncnc4sc5c(c34)CCC5)o2)c1)N1CCCCC1
    110 | 110 | -5 | -3
- C=CCn1c(CSc2nnc(-c3ccccc3)n2C)n[nH]c1=S
    101 | 110 | -5 | 3
- O=C(c1cc(=O)c2ccccc2o1)N1CCN(c2n[nH]c(=O)[nH]c2=O)CC1
    101 | 92 | -5 | -37
- Cc1c(C(=O)O)sc2nc(-c3ccccc3)cn12
    108 | 104 | 10 | -30
- O=C1CCC(=O)N1c1ccc2c(c1)oc1ccccc12
    108 | 109 | · | -17
- Cc1c(Cl)cccc1NC(=O)CCn1cnnn1
    105&104 | 108&106 | 7 | -15
- CCOc1cc(/C=C2\SC(=S)NC2=O)cc(Cl)c1OC(=O)c1ccc(OC)cc1
    116 | 123 | -1 | -17
- CC(=O)OCc1ccoc1C[N+](C)(C)C
    101 | 103 | -3 | -6
- CC(=O)N1N=C(N)SC1c1ccccc1 (configuration not stated)
    105 | 103 | -10 | -34
- Cc1cccc(NC(=O)NCc2nc(-c3cccc(C)c3)no2)c1
    103 | 98 | 2 | -17
- N#Cc1c(/N=C/c2c(O)n(Cc3ccco3)c(=O)[nH]c2=O)sc2c1CCCC2
    105 | 111 | · | -70
- CCCCN(C)c1sc(S(C)(=O)=O)nc1S(=O)(=O)c1ccc(C)cc1
    105 | 107 | -8 | -16
- COc1ccccc1C(=O)COC(=O)Cc1ccccc1F
    101 | 103 | -8 | ·

Two entries picked at random from the list so far, as already listed:
Order of results – Polio RdRp inh | Polio RdRp inh intensity | Mtb MbtI inh | MenB inh
- COc1ccccc1C(=O)COC(=O)Cc1ccccc1F
    101 | 103 | -8 | ·
- CC1(C(=O)O)Sc2[nH]c(=O)sc2C2c3ccccc3OC(=O)C21 (configuration not stated)
    98 | 99 | -9 | 6

Rows are unselected; overall some 1.7% were active at least once.
